# Bioassay records (PubChem BioAssay)
# Vaccinia stage: Vaccinia orthopox stage-specific inhibition; actives 0.01% (n = 89,000); activity change (mCherry), % (no concentration beside the values); Vaccinia-infected cells, mCherry/Venus stage reporter fluorescence; hits give low values; some inactives read as strong as hits;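 active = mCherry past -33% and 40 or more points under the early reporter, replicates agreeing; inconclusive = past -33% without that gap or agreement; tested in A549 cells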;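 also: scaled between vehicle wells and reference inhibitor wells; 23 nL library stock went into each well; one replicate is shown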
# Vaccinia stage Venus: recorded beside Vaccinia stage, whose call it bears; activity change (Venus), %; measured here: Venus reporter, other viral stage;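 negative = less Venus signal; first of two replicates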
# * marks the source's active call; other numbers are inactive results; ? = inconclusive; . = no result given.
# Values run as follows: Vaccinia stage Venus | Vaccinia stage
1	CCNC(=O)Nc1ccc2c(c1)C(=O)N(C)[C@H]1CC[C@H](CC(=O)NC3CCCCC3)O[C@H]1CO2
 : 8 | 17
2	CNC[C@H]1Oc2c(NC(=O)C3CCCCC3)cccc2C(=O)N([C@H](C)CO)C[C@H]1C
 : 17 | 11
3	O=C(C[C@H]1C[C@H]2c3cc(NC(=O)c4cccnc4)ccc3O[C@H]2[C@H](CO)O1)NCc1ccccc1F
 : 6 | 17
4	COc1ccc(S(=O)(=O)Nc2ccc3c(c2)C(=O)N([C@@H](C)CO)C[C@@H](C)[C@H](CN(C)C(=O)Cc2ccccc2)OCCCC[C@@H](C)O3)cc1
 : -8 | 6
5	CC(C)NC(=O)Nc1ccc2c(c1)C(=O)N([C@@H](C)CO)C[C@@H](C)[C@@H](CN(C)Cc1ccc(C(=O)O)cc1)OCCCC[C@H](C)O2
 : 6 | 31
6	CCCC#Cc1cnc2c(c1)C(=O)N([C@H](C)CO)C[C@H](C)[C@H](CN(C)C(=O)C1CCOCC1)O2
 : 9 | 23
7	CN(C)CC(=O)N[C@@H]1CC[C@@H](CCNC(=O)C2CCC2)O[C@H]1CO
 : 8 | 7
8	CO[C@H]1CN(C)C(=O)c2ccc(NC(=O)Nc3ccccc3)cc2OC[C@H](C)NC[C@@H]1C
 : 2 | -3
9	C[C@@H]1CN([C@@H](C)CO)C(=O)c2cc(NC(=O)CCCCCC(=O)Nc3ccccc3N)ccc2O[C@@H](C)CCCCO[C@@H]1CN(C)CC1CCCCC1
 : -4 | -15
10	C[C@H](CO)N1C[C@H](C)[C@@H](CN(C)CC2CC2)Oc2ccc(NS(=O)(=O)c3ccc(Cl)cc3)cc2C1=O
 : -5 | -9
11	O=C(C[C@H]1C[C@H]2c3cc(NC(=O)c4cccnc4)ccc3O[C@H]2[C@H](CO)O1)NCCN1CCCCC1
 : -4 | -4
12	C[C@@H]1CN([C@H](C)CO)C(=O)c2cc(/C=C/c3ccccc3)cnc2O[C@H]1CN(C)Cc1cccnc1
 : -14 | -21
13	C[C@@H]1CN([C@@H](C)CO)C(=O)Cc2cc(NC(=O)CCCN(C)C)ccc2O[C@H]1CN(C)Cc1ccc(C(=O)Nc2ccccc2N)cc1
 : -2 | -2
14	O=S(=O)(c1cccs1)N1CCCCN2[C@@H](CO)[C@@H](c3ccc(C4=CCCC4)cc3)[C@@H]2C1
 : -4 | -14
15	O=C(NC[C@H]1CC[C@@H]2[C@@H](CN2S(=O)(=O)c2ccccc2[N+](=O)[O-])O1)C1CCCC1
 : 8 | 11
16	COc1cccc(S(=O)(=O)N2CCCCN3[C@@H](CO)[C@H](c4ccc(C#CCC(C)C)cc4)[C@@H]3C2)c1
 : . | ?
17	C[C@@H]1CN([C@@H](C)CO)S(=O)(=O)c2ccc(C#Cc3ccncc3)cc2O[C@H]1CN(C)C(=O)C1CCC1
 : . | ?
18	COc1ccc(NC(=O)Nc2ccc3c(c2)C(=O)N([C@H](C)CO)C[C@@H](C)[C@H](CN(C)S(C)(=O)=O)O3)cc1
 : 10 | 9
19	O=C(C[C@@H]1CC[C@H]2[C@@H](COC[C@H](O)CN2S(=O)(=O)c2ccc(Cl)cc2)O1)N[C@H]1CCN(Cc2ccccc2)C1
 : -13 | -15
20	C[C@H]1CN([C@@H](C)CO)C(=O)c2cccc(NC(=O)c3ccncc3)c2O[C@@H]1CN(C)Cc1ccc(Cl)c(Cl)c1
 : -6 | -7
21	COc1ccc(S(=O)(=O)N(C)C[C@@H]2Oc3ccc(NC(=O)Nc4ccc(F)cc4)cc3C(=O)N([C@H](C)CO)C[C@@H]2C)cc1
 : -20 | -30
22	Cc1ccc(S(=O)(=O)N[C@H]2C=C[C@H](CC(=O)NCCN3CCCCC3)O[C@H]2CO)cc1
 : 3 | 0
23	Cc1noc(C)c1NC(=O)Nc1ccc2c(c1)C(=O)N([C@H](C)CO)C[C@H](C)[C@H](CN(C)C(=O)Nc1ccc(F)cc1)OCCCC[C@@H](C)O2
 : 10 | 27
24	Cn1cnc(S(=O)(=O)N2CCCCN3[C@@H](CO)[C@@H](c4ccc(-c5ccccc5)cc4)[C@@H]3C2)c1
 : -17 | -22
25	C[C@H]1CN([C@@H](C)CO)C(=O)c2cccc(NC(=O)C3CCCCC3)c2O[C@@H]1CN(C)C(=O)Nc1ccc(F)cc1
 : 10 | 8
26	C[C@@H]1CCCCO[C@@H](CN(C)C(=O)Nc2ccc(F)cc2)[C@H](C)CN([C@H](C)CO)C(=O)c2cc(NS(=O)(=O)c3ccccc3)ccc2O1
 : . | ?
27	COCCNC(=O)C[C@@H]1C[C@@H]2c3cc(NC(=O)CN(C)C)ccc3O[C@@H]2[C@H](CO)O1
 : 3 | 8
28	COc1ccccc1C(=O)Nc1ccc2c(c1)C(=O)N(C)C[C@H](OC)[C@@H](C)CN[C@H](C)CO2
 : 2 | 2
29	CN1C(=O)c2cc(NC(=O)C3CCCC3)ccc2OC[C@@H]2O[C@@H](CC(=O)O)CC[C@@H]21
 : -3 | 6
30	C[C@H](CO)N1C[C@H](C)[C@H](CN(C)Cc2ccc(C(=O)O)cc2)Oc2c(NS(=O)(=O)c3ccc(F)cc3)cccc2C1=O
 : 17 | 26

# Complete entries as entered above:
# COc1ccc(S(=O)(=O)N(C)C[C@@H]2Oc3ccc(NC(=O)Nc4ccc(F)cc4)cc3C(=O)N([C@H](C)CO)C[C@@H]2C)cc1 is listed as Vaccinia stage Venus = -20; Vaccinia stage = -30
# CNC[C@H]1Oc2c(NC(=O)C3CCCCC3)cccc2C(=O)N([C@H](C)CO)C[C@H]1C is listed as Vaccinia stage Venus = 17; Vaccinia stage = 11
# C[C@H]1CN([C@@H](C)CO)C(=O)c2cccc(NC(=O)c3ccncc3)c2O[C@@H]1CN(C)Cc1ccc(Cl)c(Cl)c1 is listed as Vaccinia stage Venus = -6; Vaccinia stage = -7

# Returning to the listing, starting two compounds before the break.
# Values run as follows: Vaccinia stage Venus | Vaccinia stage
29	CN1C(=O)c2cc(NC(=O)C3CCCC3)ccc2OC[C@@H]2O[C@@H](CC(=O)O)CC[C@@H]21
 : -3 | 6
30	C[C@H](CO)N1C[C@H](C)[C@H](CN(C)Cc2ccc(C(=O)O)cc2)Oc2c(NS(=O)(=O)c3ccc(F)cc3)cccc2C1=O
 : 17 | 26
31	C[C@H](CO)N1C[C@H](C)[C@@H](CN(C)C(=O)c2ccccc2)OCCCC[C@H](C)Oc2ccc(NS(=O)(=O)c3ccc(F)cc3)cc2C1=O
 : -12 | -21
32	O=C(c1ccccn1)N1CC2(C1)[C@H](c1ccccc1)[C@@H](CO)N2Cc1ccc(F)cc1
 : 9 | 22
33	CCC(=O)N[C@@H]1C=C[C@@H](CC(=O)NCc2ccccc2OC)O[C@H]1CO
 : 5 | 0
34	C[C@@H]1CN([C@@H](C)CO)C(=O)c2cccc(NC(=O)C3CCOCC3)c2O[C@H]1CN(C)Cc1ccc(C(F)(F)F)cc1
 : -2 | -8
35	N#Cc1cccc(-c2ccc3c(c2)[C@@H]2[C@@H](CCN2C(=O)c2ccncc2)[C@@H](CO)N3)c1
 : 19 | 9
36	COc1ccc(S(=O)(=O)Nc2cccc3c2O[C@@H](CN(C)Cc2ccc(-c4ccccc4)cc2)[C@H](C)CN([C@H](C)CO)C3=O)cc1
 : 10 | 1
37	C[C@H](CO)N1C[C@H](C)[C@@H](CN(C)C(=O)C2CC2)Oc2ncc(-c3ccccc3F)cc2C1=O
 : 3 | 22
38	C[C@@H]1CN([C@@H](C)CO)C(=O)c2cc(NC(=O)Nc3cccc4ccccc34)ccc2O[C@@H](C)CCCCO[C@H]1CN(C)CC1CCCCC1
 : -18 | -26
39	OC[C@H]1[C@@H](c2ccc(-c3ccccc3F)cc2)[C@H]2CN(Cc3cccnc3)CCCCN21
 : -14 | 3
40	CC(C)CC#Cc1cnc2c(c1)C(=O)N([C@H](C)CO)C[C@@H](C)[C@H](CN(C)S(=O)(=O)c1cn(C)cn1)O2
 : 12 | 0
41	Cc1ccc(S(=O)(=O)Nc2ccc3c(c2)C(=O)N([C@@H](C)CO)C[C@H](C)[C@@H](CN(C)S(=O)(=O)c2ccc(Cl)cc2)O3)cc1
 : 17 | 6
42	C[C@H]1CN([C@@H](C)CO)C(=O)c2cc(NC(=O)C3CC3)ccc2O[C@@H]1CN(C)Cc1ccc(C(=O)Nc2ccccc2N)cc1
 : 7 | 0
43	CO[C@@H]1CN(C)C(=O)c2ccc(NC(=O)c3ccno3)cc2OC[C@@H](C)N(S(C)(=O)=O)C[C@H]1C
 : 19 | 22
44	C[C@H](CO)N1C[C@H](C)[C@H](CN(C)C(=O)Nc2ccc(F)cc2)Oc2c(NS(C)(=O)=O)cccc2C1=O
 : 8 | 20
45	COc1ccc(-c2cn(CC[C@H]3CC[C@@H](NS(=O)(=O)c4ccccc4C)[C@@H](CO)O3)nn2)cc1
 : -6 | -8
46	C[C@@H]1CCCCO[C@H](CN(C)C(=O)Nc2ccc3c(c2)OCO3)[C@@H](C)CN([C@H](C)CO)C(=O)c2cc(NC(=O)Nc3ccc(F)cc3)ccc2O1
 : 13 | 22
47	COCCNC(=O)C[C@@H]1C[C@@H]2c3cc(NC(=O)NC4CCCCC4)ccc3O[C@@H]2[C@H](CO)O1
 : 7 | 1
48	COCC#Cc1ccc([C@@H]2[C@H](CO)N3C(=O)CN(C(=O)C4CCOCC4)C[C@@H]23)cc1
 : 16 | 18
49	COc1ccc(CN(C)C[C@@H]2Oc3ccc(NS(=O)(=O)c4ccc(Cl)cc4)cc3C(=O)N([C@H](C)CO)C[C@@H]2C)cc1
 : -10 | -9
50	C/C=C/c1ccc([C@H]2[C@@H](CO)N3C(=O)CN(C(=O)NC4CCCCC4)C[C@@H]23)cc1
 : -1 | -6
51	O=C(C1CC1)N1CC(=O)N2[C@H](CO)[C@H](c3ccc(Br)cc3)[C@H]2C1
 : 2 | -7
52	CO[C@@H]1CN(C)C(=O)c2ccc(NC(=O)c3ccccn3)cc2OC[C@@H](C)N(C(=O)C2CCCCC2)C[C@H]1C
 : 8 | 10
53	CNC[C@@H]1Oc2c(NS(=O)(=O)c3cn(C)cn3)cccc2C(=O)N([C@H](C)CO)C[C@H]1C
 : -2 | 21
54	C[C@H]1CN([C@@H](C)CO)C(=O)Cc2cc(NC(=O)CCCCCC(=O)Nc3ccccc3N)ccc2O[C@@H]1CN(C)C(=O)NC1CCCCC1
 : 18 | -3
55	O=C(C1CCOCC1)N1C[C@@H]2[C@H](c3ccccc31)[C@H](CO)N2Cc1ccc(Cl)cc1
 : 6 | -3
56	O=C(C[C@@H]1C[C@@H]2c3cc(NC(=O)NC4CCCC4)ccc3O[C@@H]2[C@@H](CO)O1)NCc1ccccc1F
 : 15 | 15
57	C[C@@H]1CCCCO[C@@H](CN(C)Cc2ccc(C(F)(F)F)cc2)[C@@H](C)CN([C@H](C)CO)C(=O)c2cc(NC(=O)CCCCCC(=O)Nc3ccccc3N)ccc2O1
 : -4 | -1
58	CO[C@@H]1CN(C)C(=O)c2ccc(NC(=O)c3ccc4c(c3)OCO4)cc2OC[C@@H](C)N(CCC(F)(F)F)C[C@@H]1C
 : -21 | -32
59	Cc1ccc(S(=O)(=O)N(C)C[C@@H]2OCCCC[C@H](C)Oc3ccc(NC(=O)c4ccccc4)cc3C(=O)N([C@H](C)CO)C[C@H]2C)cc1
 : -17 | -31
60	C[C@@H](O)C#Cc1ccc([C@H]2[C@H](CO)N3CCCCN(C(=O)c4cccc(F)c4)C[C@@H]23)cc1
 : 2 | 16
61	COCCNC(=O)[C@H]1[C@H](CO)[C@H]2Cn3c(ccc(C4=CCCCC4)c3=O)[C@@H]1N2C(=O)C1CCCC1
 : -3 | 17
62	CCS(=O)(=O)N1CCC2(CC1)CN(C(=O)c1ccc(F)cc1)[C@H](CO)c1[nH]c3cc(OC)ccc3c12
 : 6 | 5

# The list is partial, so the mix of outcomes need not match the whole.
